YopH inh = YopH tyrosine phosphatase inhibitors, primary screen, biochemical, fluorescence Ex485/Em525; YopH tyrosine phosphatase [Yersinia enterocolitica]; AID 898, 2007; 140,000 compounds, 0.16% hits; inhibition, %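 (about 10 µM by stock and volumes)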;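 active = inhibition of 50% or more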;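 also: controls were vehicle for no effect and minimum signal wells for full effect; inactives centre near -20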
Mtb bLac sens = beta-lactam sensitization of Mtb H37Rv, H37Rv; M. tuberculosis H37Rv growth with meropenem, percent inhibition; hits of this screen are not shown here; inhibition, % at 25 µM; 330,000 compounds, 0.27% hits; AID 434955, 2010;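 active = about 74% or more and at least 40 points above the plate without the antibiotic, then above 30% in a dose series; inconclusive = first-round hits that could not be retested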;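 also: growth measured after seven days incubation then overnight dye step; 0% = bacteria only wells and 100% = bacteria with antibiotic; twin plates without the antibiotic show which effects depend on it; some results filed as inactive read as strong as hits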
RecA splice inh = Mtb RecA intein splicing inhibitors, primary screen, biochemical, fluorescence, HTS | Protein RecA (Mycobacterium tuberculosis (strain ATCC 25618 / H37Rv)), P9WHJ3 | cell-free RecA intein splicing | inhibition, %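 (about 9 µM by stock and volumes)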 | 290,000 compounds, 0.75% hits | AID 2221, 2009; in the data active = inhibition above about 30%; inconclusive = no clear call, values can overlap the other calls;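 also: 0% = vehicle wells and 100% = reference inhibitor control wells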
Target sequence (P9WHJ3 whole entry, looked up, canonical isoform): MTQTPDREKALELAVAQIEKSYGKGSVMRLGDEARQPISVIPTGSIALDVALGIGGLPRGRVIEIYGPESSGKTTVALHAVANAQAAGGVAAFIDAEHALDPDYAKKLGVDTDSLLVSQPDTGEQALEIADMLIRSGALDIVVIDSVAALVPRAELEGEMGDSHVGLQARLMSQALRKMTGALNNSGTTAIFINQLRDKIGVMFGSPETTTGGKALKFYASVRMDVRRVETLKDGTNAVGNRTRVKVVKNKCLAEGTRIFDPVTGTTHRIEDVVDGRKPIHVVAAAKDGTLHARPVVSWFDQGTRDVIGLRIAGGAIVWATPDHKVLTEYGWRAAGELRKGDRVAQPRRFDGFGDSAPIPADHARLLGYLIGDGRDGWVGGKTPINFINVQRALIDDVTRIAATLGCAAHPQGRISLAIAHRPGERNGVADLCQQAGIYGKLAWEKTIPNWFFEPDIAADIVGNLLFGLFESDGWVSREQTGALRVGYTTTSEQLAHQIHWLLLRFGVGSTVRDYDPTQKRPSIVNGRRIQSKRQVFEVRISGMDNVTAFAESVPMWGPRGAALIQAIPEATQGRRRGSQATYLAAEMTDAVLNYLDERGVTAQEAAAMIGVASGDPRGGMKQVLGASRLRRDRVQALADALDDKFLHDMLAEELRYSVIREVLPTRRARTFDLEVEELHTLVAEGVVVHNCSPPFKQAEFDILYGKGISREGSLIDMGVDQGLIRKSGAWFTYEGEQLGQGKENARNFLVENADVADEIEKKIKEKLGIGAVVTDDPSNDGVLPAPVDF
Mtb growth = M. tuberculosis H37Rv growth inhibitors, H37Rv strain (AID 1626); M. tuberculosis H37Rv growth inhibition; higher % means a stronger effect; inhibition, % at 10 µM, or IC50 in µM where a hit was titrated; 220,000 compounds, 0.95% hits;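 active = confirmed in a dose series; inconclusive = inhibition above 80% but not taken into the dose series; inactive = below 80% or under 30% at every dose of the series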;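 also: bacteria incubated seven days before Alamar blue readout; 0% = bacteria only wells and 100% = bacteria with antibiotic wells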
Arbovirus inh = antivirals against arbovirus infection, primary screen, cell-based, full library, 10K replicate subset. arbovirus infection cell-based antiviral screen. inhibition, % at 10 µM. 200,000 compounds, 0.37% hits;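 active = inhibition from about 30%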;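 also: bluetongue infection of BSR cells; cell survival read as ATP light after 72 h; 0% = infected wells without compound and 100% = uninfected wells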
Arbovirus inh repeat = recorded beside Arbovirus inh, whose call it bears; inhibition, %; measured here: 10K subset replicate screen; many hits read low in the repeat;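 first of two repeat runs on a subset; 0% = infected and 100% = uninfected wells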
Numbers without * were called inactive. A portion of the library (hit frequency here may not be typical).

Screening O=C(CSc1ncccc1C(=O)O)NC12CC3CC(CC(C3)C1)C2 returned Mtb bLac sens 3.0, RecA splice inh 2.5, Mtb growth 2.2% and Arbovirus inh 9.7.
Screening O=C(CSc1nc2ccccc2c(=O)n1-c1ccc(SC(F)F)cc1)Nc1ccc(N2CCOCC2)cc1 returned Mtb bLac sens 1.9, RecA splice inh -0.2, Mtb growth 18.7% and Arbovirus inh -5.3.
For COCCNC(=O)C(=O)N/N=C/c1ccc(C(=O)OC)cc1 the results were Mtb bLac sens -3.3, RecA splice inh -1.4, Mtb growth 9.2% and Arbovirus inh 1.1.
COC(=O)C(Nc1nccs1)(OC)C(F)(F)F (centres undefined) was read as YopH inh -25.2, Mtb bLac sens -1.8, RecA splice inh 0.4 and Arbovirus inh 1.8.
For Cc1ccc(C(=O)CSc2nnc(CNc3ccc(C)cc3C)n2Cc2ccco2)cc1 the results were YopH inh -41.9, Mtb bLac sens -0.2, RecA splice inh 12.3, Mtb growth 8.4% and Arbovirus inh -9.1.
For CC(=O)c1c(C)[nH]c(C(=O)NCCCN2CCCC2)c1C the results were YopH inh -46.1, Mtb bLac sens 7.0, RecA splice inh 1.3, Mtb growth -6.0% and Arbovirus inh -7.8.
`O=C(NNC(=O)C1CCCN(c2ncccn2)C1)c1ccc(F)cc1` (centres undefined) gave YopH inh -34.4, Mtb bLac sens -8.4, RecA splice inh -0.1, Mtb growth -12.3% and Arbovirus inh 8.2.
Screening COc1ccc(C2N(c3cc(Cl)ccc3OC)C(=O)C3CCCN32)cc1OC (centres undefined) returned YopH inh -34.4, Mtb bLac sens 1.7, RecA splice inh 1.0, Mtb growth -1.7%, Arbovirus inh 9.2 and Arbovirus inh repeat -2.1.
`CC1CCCCC1NC(=O)Cn1[nH]c(=O)c2ccccc2c1=O` (centres undefined) gave YopH inh -16.1, Mtb bLac sens -2.8, RecA splice inh -3.4, Mtb growth -2.6% and Arbovirus inh 5.9.
For CCn1c(SCC(=O)NC2CCCC2)nnc1-c1ccco1 the results were Mtb bLac sens 7.6 and RecA splice inh 0.2.
Screening Cc1ccc2nc(NC(=O)CN3C(=O)C4CC=CCC4C3=O)sc2c1 (centres undefined) returned Mtb bLac sens -8.0, RecA splice inh -2.6, Mtb growth 0.2% and Arbovirus inh 19.8.
For CCOC(=O)CCSc1n[nH]c(=S)s1 the results were Mtb bLac sens -8.7, RecA splice inh -2.6 and Mtb growth -0.5%.
For COCCOC(=O)C1=C(C)NC(=O)NC1c1cccs1 (centres undefined) the results were YopH inh -37.3, Mtb bLac sens -3.7, RecA splice inh -2.0, Mtb growth -2.3% and Arbovirus inh -1.3.
`Cc1cc(C)nc(N/C(=N\S(=O)(=O)Cc2ccccc2)Nc2cccc(Cl)c2C)n1` gave YopH inh -50.8, Mtb bLac sens 5.3, RecA splice inh -0.4, Mtb growth -9.7% and Arbovirus inh -12.6.
`O=C(COC(=O)CCC(=O)c1ccc(F)cc1)Nc1ccccc1` gave Mtb bLac sens -9.5, RecA splice inh -0.8, Mtb growth 0.9% and Arbovirus inh 6.2.
For CCCSc1nnc(CSc2nc3nc(C)cc(C)n3n2)o1 the results were YopH inh -20.9, Mtb bLac sens 6.8, RecA splice inh -3.3, Mtb growth -11.4% and Arbovirus inh 8.1.
COc1cc(NC(=O)c2ccc(NC3=NC4CS(=O)(=O)CC4S3)cc2)cc(OC)c1 (centres undefined) was read as Mtb bLac sens 5.1 and RecA splice inh -0.4.
O=C(CCn1ccc([N+](=O)[O-])n1)NC1CCCCCC1 was read as YopH inh -6.9, Mtb bLac sens -4.0, RecA splice inh 1.4, Mtb growth -2.3% and Arbovirus inh -9.7.
`C/C(CC(=O)Nc1ccccc1-c1ccccc1)=N\NC(=O)COc1ccc(C)cc1Br` gave YopH inh -0.6, Mtb bLac sens 51.6, RecA splice inh 6.1, Mtb growth 6.3% and Arbovirus inh -1.8.
`O=C(N/N=C/c1ccc(N2CCOCC2)cc1)c1ccccc1OCCOc1ccccc1` gave Mtb bLac sens 7.8, RecA splice inh -3.8, Mtb growth 9.6% and Arbovirus inh 10.7.
`CS(=O)(=O)Nc1ccc(C(=O)NCc2ccccn2)cc1` gave YopH inh -18.5, Mtb bLac sens -1.1, RecA splice inh 0.6, Mtb growth -3.8% and Arbovirus inh 2.4.
For COc1ccc(CNc2nc3ccccc3n2C)c(OC)c1 the results were Mtb bLac sens 19.8, RecA splice inh -0.2, Mtb growth -2.5% and Arbovirus inh -3.5.
`Cc1cccc(-c2nnc(SCC(=O)Nc3cccc(C(=O)N4CCOCC4)c3)n2C)c1` gave YopH inh -24.7, Mtb bLac sens -3.2, RecA splice inh 1.6, Mtb growth -0.1% and Arbovirus inh 8.9.
C=CCN(C)NC(=O)Nc1ccccc1 was read as Mtb bLac sens -8.0, RecA splice inh 1.0, Mtb growth -0.7% and Arbovirus inh 4.1.
O=C(COC(=O)C1Cc2ccccc2CN1C(=O)c1ccccc1Cl)Nc1ccc(N2CCOCC2)cc1 (centres undefined) was read as YopH inh -14.9, Mtb bLac sens -1.2, RecA splice inh -1.8, Mtb growth -1.8% and Arbovirus inh 7.9.
`COc1ccc(NC(=S)Nc2cc(S(=O)(=O)N3CCCCC3)ccc2OC)cc1` gave YopH inh 8.6, Mtb bLac sens -5.7, RecA splice inh 0.5, Mtb growth 2.0% and Arbovirus inh 8.5.
For O=[N+]([O-])c1cc([N+](=O)[O-])c2n[nH]c(-c3ccccc3)c2c1 the results were Mtb bLac sens 6.9, RecA splice inh -0.5 and Arbovirus inh 12.4.
`O=C(CSC1=NCCS1)NC1CCCC1` gave YopH inh -7.8, Mtb bLac sens -8.8, RecA splice inh 3.8, Mtb growth 5.4% and Arbovirus inh 6.4.
Screening CCOc1ccc(CCNC(=O)c2cccc(S(=O)(=O)N3CCOCC3)c2)cc1OCC returned Mtb bLac sens -0.6 and RecA splice inh -2.4.
`Cc1ccc(N2C(=O)c3ccccc3C2(O)c2ncc[nH]2)cc1` (centres undefined) gave YopH inh -28.1, Mtb bLac sens 22.7, RecA splice inh 0.8, Mtb growth 3.5% and Arbovirus inh 6.8.
`COc1cc2[nH]c(=S)nc(NCc3ccccn3)c2cc1OC` gave Mtb growth 8.7% and Arbovirus inh -2.9.
Screening COc1cccc(NC(=S)N(Cc2ccc(C(=O)O)cc2)Cc2ccc(OC)c(OC)c2)c1 returned Mtb bLac sens 0.2, RecA splice inh 0.6, Mtb growth 8.0% and Arbovirus inh 4.5.
For Cc1cc(C)cc(OCc2nnc(SCC(=O)c3ccc(Br)cc3)o2)c1 the results were YopH inh -16.7, Mtb bLac sens -0.3, RecA splice inh 4.0, Mtb growth -0.2% and Arbovirus inh -4.9.
O=C(CC(=O)c1ccccc1[N+](=O)[O-])c1ccccc1 was read as Mtb bLac sens 11.0 and RecA splice inh 1.4.
`CCOc1ccc(-c2nc(CSc3nncs3)cs2)cc1OC` gave YopH inh -41.5, Mtb bLac sens 10.2, RecA splice inh 2.7, Mtb growth 5.2%, Arbovirus inh 2.7 and Arbovirus inh repeat 1.8.
For O=C(Nc1ccncc1)Nc1ccc(Br)cc1Cl the results were Mtb bLac sens -0.6 and RecA splice inh 2.0.
`CCc1ccccc1OCC(=O)Nc1ccc(S(N)(=O)=O)cc1` gave YopH inh 15.5, Mtb bLac sens 3.1, RecA splice inh 10.1, Mtb growth -5.9% and Arbovirus inh 14.2.
`CC(NC(=S)Nc1ccccc1Cl)C(c1ccccc1)N1CCOCC1` (centres undefined) gave YopH inh -27.7, Mtb bLac sens -2.2, RecA splice inh 0.4, Mtb growth 5.0% and Arbovirus inh 8.9.
CC1CCN(C(=O)CCc2nnc3ccc(N4CCC5(CC4)OCCO5)nn23)CC1 was read as Mtb bLac sens 5.2 and RecA splice inh -1.0.
Screening O=c1[nH]c(-c2ccccc2)ncc1Oc1ccccc1 returned Mtb bLac sens 0.4 and RecA splice inh 2.5.
For CC(C)C(=O)Nc1ccc(N2CCCC2)cc1 the results were YopH inh -17.6, Mtb bLac sens -23.5, RecA splice inh -1.8, Mtb growth 2.9% and Arbovirus inh -5.0.
Screening CCC1(c2ccccc2)C(=O)N(C(=O)OC(C)(C)C)N1C(=O)OC(C)(C)C (centres undefined) returned Mtb bLac sens -3.0 and RecA splice inh 6.4.
Screening CCCCCSc1nnc(-c2ccccc2NC(C)=O)c(=O)[nH]1 returned Mtb bLac sens -6.3, RecA splice inh -0.7, Mtb growth -0.6% and Arbovirus inh -6.9.
For COc1ccc(NC(=S)N2CCCCC2c2cccnc2)cc1 (centres undefined) the results were Mtb bLac sens -5.4, RecA splice inh 1.7 and Mtb growth -2.7%.
CCn1c(SCc2ccccc2)nnc1-c1cccnc1 was read as Mtb bLac sens -1.1, RecA splice inh -0.5, Mtb growth -5.8% and Arbovirus inh 9.8.
Screening COc1cc(OC)cc(-c2nnc(SCC(=O)N3CCCc4ccccc43)o2)c1 returned YopH inh -43.7, Mtb bLac sens 2.6, RecA splice inh 2.1, Mtb growth 5.9% and Arbovirus inh -7.8.
Cc1cc(-n2c(=S)sc3c(=O)n(-c4ccc(F)cc4)c(SCC(=O)O)nc32)ccc1Cl was read as Mtb bLac sens 3.3 and RecA splice inh -22.3.
CC(C)c1onc(C(=O)N2CCCCCC2)c1[N+](=O)[O-] was read as Mtb bLac sens -2.8, RecA splice inh -1.1, Mtb growth 4.2% and Arbovirus inh 5.8.
`N/C(=N\OC(=O)Nc1ccccc1)c1ncc([N+](=O)[O-])s1` gave Mtb bLac sens 100.1, RecA splice inh 14.5 and Mtb growth inconclusive.
Cn1cc(SCC(=O)Nc2ccc3c(c2)OCCO3)c2ccccc21 was read as YopH inh -34.7, Mtb bLac sens 0.7, RecA splice inh 2.0, Mtb growth 0.5% and Arbovirus inh 4.2.

A run of entries of the results above, as a working copy:
`CC(NC(=S)Nc1ccccc1Cl)C(c1ccccc1)N1CCOCC1` (centres undefined) gave YopH inh -27.7, Mtb bLac sens -2.2, RecA splice inh 0.4, Mtb growth 5.0% and Arbovirus inh 8.9.
CC1CCN(C(=O)CCc2nnc3ccc(N4CCC5(CC4)OCCO5)nn23)CC1 was read as Mtb bLac sens 5.2 and RecA splice inh -1.0.
Screening O=c1[nH]c(-c2ccccc2)ncc1Oc1ccccc1 returned Mtb bLac sens 0.4 and RecA splice inh 2.5.
For CC(C)C(=O)Nc1ccc(N2CCCC2)cc1 the results were YopH inh -17.6, Mtb bLac sens -23.5, RecA splice inh -1.8, Mtb growth 2.9% and Arbovirus inh -5.0.
Screening CCC1(c2ccccc2)C(=O)N(C(=O)OC(C)(C)C)N1C(=O)OC(C)(C)C (centres undefined) returned Mtb bLac sens -3.0 and RecA splice inh 6.4.
Screening CCCCCSc1nnc(-c2ccccc2NC(C)=O)c(=O)[nH]1 returned Mtb bLac sens -6.3, RecA splice inh -0.7, Mtb growth -0.6% and Arbovirus inh -6.9.
For COc1ccc(NC(=S)N2CCCCC2c2cccnc2)cc1 (centres undefined) the results were Mtb bLac sens -5.4, RecA splice inh 1.7 and Mtb growth -2.7%.
CCn1c(SCc2ccccc2)nnc1-c1cccnc1 was read as Mtb bLac sens -1.1, RecA splice inh -0.5, Mtb growth -5.8% and Arbovirus inh 9.8.
Screening COc1cc(OC)cc(-c2nnc(SCC(=O)N3CCCc4ccccc43)o2)c1 returned YopH inh -43.7, Mtb bLac sens 2.6, RecA splice inh 2.1, Mtb growth 5.9% and Arbovirus inh -7.8.
Cc1cc(-n2c(=S)sc3c(=O)n(-c4ccc(F)cc4)c(SCC(=O)O)nc32)ccc1Cl was read as Mtb bLac sens 3.3 and RecA splice inh -22.3.
CC(C)c1onc(C(=O)N2CCCCCC2)c1[N+](=O)[O-] was read as Mtb bLac sens -2.8, RecA splice inh -1.1, Mtb growth 4.2% and Arbovirus inh 5.8.
`N/C(=N\OC(=O)Nc1ccccc1)c1ncc([N+](=O)[O-])s1` gave Mtb bLac sens 100.1, RecA splice inh 14.5 and Mtb growth inconclusive.
Cn1cc(SCC(=O)Nc2ccc3c(c2)OCCO3)c2ccccc21 was read as YopH inh -34.7, Mtb bLac sens 0.7, RecA splice inh 2.0, Mtb growth 0.5% and Arbovirus inh 4.2.

From PubChem
